GoLoco inh red = qHTS Assay for Inhibitors of RGS12 GoLoco Motif Activity (Red Fluorophore). Guanine nucleotide-binding protein G(i) subunit alpha-1 (Homo sapiens), P63096. Gai1:RGS12 GoLoco peptide FP, rhodamine, 10 min. Potency, µM (series often up to 61.6 µM), for inactives: top-dose activity, negative = inhibition, hits mostly inhibitors. actives 0.44% (n = 230,000); active = well fitted inhibition curve with a large enough effect, not every such curve was filed as active; inactive = no such curve, though single readings can be large or run the other way; note: nearly all actives have a fitted effect of over 30% in size; many of its hits are not listed in these tables
RECQ1 helicase = qHTS Assay for Inhibitors of RecQ-Like Dna Helicase 1 (RECQ1); actives 0.54% (n = 240,000); AID 2549, 2010; Potency, µM (doses to about 57.3 µM), for the others: top-dose activity, negative = inhibition, hits mostly inhibitors; RECQ1 DNA unwinding, red fluorescence kinetic read; active = well fitted inhibition curve with a large enough effect; inconclusive = small, poorly fitted or top-dose-only effect;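 note: plate controls were vehicle for no effect and no enzyme for full effect; nearly all actives have a fitted effect of over 30% in size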
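RECQ1T1 50 nM; forked duplex (20 bp + 30-nt ss tails) 200 nM, ATP 2 mM final; pH 8.0, 2 mM MgCl2, 2.5 ug/ml poly(dI-dC); 15 min compound preincubation; discontinuous kinetic read over 2 h at RT.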
* hit, by the source's call; ? = inconclusive; & = joins results of further samples; [ ] = remark or other dose. Unless noted, % is set by controls: 0 for no effect and ±100 for the full control effect; potency is the fitted concentration of half-maximal effect. The list is partial; most or all hits stand in other tables.

#1 O=C1C(CCS(=O)c2ccccc2)C(=O)N(c2ccccc2)N1c1ccccc1 (stereo unspecified)
#2 CC(CCc1ccccc1)NCC(O)c1ccc(O)c(C(N)=O)c1 (stereo unspecified)
#3 CN(C)CC[C@@H](c1ccc(Cl)cc1)c1ccccn1
#4 CCn1cc(C(=O)O)c(=O)c2cc(F)c(N3CCN(C)CC3)cc21
#5 CC1(C)S[C@H]2[C@@H](NC(=O)C(N)c3ccccc3)C(=O)N2[C@H]1C(=O)O (stereo partly specified)
#6 C#CCN(C)CCCOc1ccc(Cl)cc1Cl
screen / no. | 1 | 2 | 3 | 4 | 5 | 6
GoLoco inh red | 4.4% | 10.3%&10.7%&8.0% | 6.2%&-10.6% | -1.6%&-1.0% | 6.0% | 3.7%
RECQ1 helicase | -2.8% | -5.6%&8.4% | -0.5%&-0.3%&-4.4% | 11.7%&6.6% | ? | 0.0%

Full records from above.
CC(CCc1ccccc1)NCC(O)c1ccc(O)c(C(N)=O)c1 (stereo unspecified) reads GoLoco inh red = 10.3%&10.7%&8.0%; RECQ1 helicase = -5.6%&8.4%
CN(C)CC[C@@H](c1ccc(Cl)cc1)c1ccccn1 reads GoLoco inh red = 6.2%&-10.6%; RECQ1 helicase = -0.5%&-0.3%&-4.4%
C#CCN(C)CCCOc1ccc(Cl)cc1Cl reads GoLoco inh red = 3.7%; RECQ1 helicase = 0.0%

(further entries)
#7 O=C(O)CCC(=O)C(=O)O
#8 Nc1ccn([C@H]2CS[C@@H](CO)O2)c(=O)n1
#9 OCc1cccnc1
#10 C[C@H]1OC(OC2C(O)[C@@H](O)C(OC3C(O)[C@@H](O)C(O)O[C@@H]3CO)O[C@@H]2CO)[C@H](O)C(O)C1N[C@H]1C=C(CO)[C@@H](O)[C@H](O)C1O (stereo partly specified)
#11 O=[N+]([O-])c1cc2cccnc2c2ncccc12
#12 C[C@]12C=CC(=O)C=C1CC[C@H]1[C@@H]3C[C@@H](O)[C@](O)(C(=O)CO)[C@@]3(C)C[C@H](O)[C@@]12F
#13 NCCS
screen / no. | 7 | 8 | 9 | 10 | 11 | 12 | 13
GoLoco inh red | 6.0%[14.2 µM] | 4.7% | 9.8% | 1.2% | 8.5% | 6.0%&4.9% | 10.5%&-28.6%&-4.2%
RECQ1 helicase | 10.0% | -3.0% | -11.1%&-6.3% | 0.2% | -2.1% | -8.7%&-3.9% | -3.1%&0.3%

Assay outcomes: PubChem, National Center for Advancing Translational Sciences (NCATS)
